Mtb growth: M. tuberculosis H37Rv growth inhibitors, H37Rv strain (AID 1626); M. tuberculosis H37Rv growth inhibition; higher % means a stronger effect; one-dose inhibition, % at 10 µM; IC50 in µM for titrated hits; 220,000 compounds, 0.95% hits;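 active = confirmed in a dose series; inconclusive = inhibition above 80% but not taken into the dose series; inactive = below 80% or under 30% at every dose of the series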;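 note: bacteria incubated seven days before Alamar blue readout; 0% = bacteria only wells and 100% = bacteria with antibiotic wells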
Mtb betalactam: beta-lactam sensitization of Mtb H37Rv; inhibition, % at 25 µM; 330,000 compounds, 0.27% hits; M. tuberculosis H37Rv growth with meropenem, percent inhibition; hits of this screen are not shown here;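 active = about 74% or more and at least 40 points above the plate without the antibiotic, then above 30% in a dose series; inconclusive = first-round hits that could not be retested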;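 note: growth measured after seven days incubation then overnight dye step; 0% = bacteria only wells and 100% = bacteria with antibiotic; twin plates without the antibiotic show which effects depend on it; some results filed as inactive read as strong as hits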
YopH PTP inh: blocks Yersinia enterocolitica YopH tyrosine phosphatase | AID 898 | inhibition, %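 (about 10 µM by stock and volumes)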 | 140,000 compounds, 0.16% hits | fluorescence Ex485/Em525;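 active = inhibition of 50% or more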;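 note: controls were vehicle for no effect and minimum signal wells for full effect; inactives centre near -20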
Arbovirus anti: arbovirus infection inhibition; arbovirus infection cell-based antiviral screen; inhibition, % at 10 µM; 200,000 compounds, 0.37% hits; AID 1251;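 active = inhibition from about 30%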;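 note: bluetongue infection of BSR cells; cell survival read as ATP light after 72 h; 0% = infected wells without compound and 100% = uninfected wells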
RecA intein inh: blocks M. tuberculosis RecA intein splicing; 290,000 compounds, 0.75% hits; cell-free RecA intein splicing, fluorescence; AID 2221; P9WHJ3; inhibition, %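 (about 9 µM by stock and volumes)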; in the data active = inhibition above about 30%; inconclusive = no clear call, values can overlap the other calls;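 note: 0% = vehicle wells and 100% = reference inhibitor control wells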
Target sequence (P9WHJ3 whole entry, looked up): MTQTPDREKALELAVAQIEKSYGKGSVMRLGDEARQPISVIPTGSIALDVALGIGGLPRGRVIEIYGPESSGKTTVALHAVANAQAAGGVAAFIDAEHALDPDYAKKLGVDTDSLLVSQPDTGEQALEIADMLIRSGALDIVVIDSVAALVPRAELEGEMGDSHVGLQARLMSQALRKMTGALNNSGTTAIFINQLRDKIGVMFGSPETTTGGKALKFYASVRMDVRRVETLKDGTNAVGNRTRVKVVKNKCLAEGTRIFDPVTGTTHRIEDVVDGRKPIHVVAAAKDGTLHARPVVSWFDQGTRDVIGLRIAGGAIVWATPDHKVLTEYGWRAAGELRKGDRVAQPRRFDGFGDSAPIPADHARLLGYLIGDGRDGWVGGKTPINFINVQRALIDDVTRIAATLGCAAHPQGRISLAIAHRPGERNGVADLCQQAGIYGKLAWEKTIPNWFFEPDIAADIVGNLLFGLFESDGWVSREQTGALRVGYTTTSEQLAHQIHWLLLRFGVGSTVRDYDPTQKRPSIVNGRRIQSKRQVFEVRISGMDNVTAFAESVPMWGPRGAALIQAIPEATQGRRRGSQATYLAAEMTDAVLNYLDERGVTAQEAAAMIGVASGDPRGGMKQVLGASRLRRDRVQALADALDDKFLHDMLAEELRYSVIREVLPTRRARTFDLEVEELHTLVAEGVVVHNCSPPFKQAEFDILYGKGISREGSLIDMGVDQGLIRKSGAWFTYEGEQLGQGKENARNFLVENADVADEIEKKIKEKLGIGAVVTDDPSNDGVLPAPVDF
Arbovirus anti repeat: further read-out of Arbovirus anti, marked with its call; inhibition, %; measured here: 10K subset replicate screen; many hits read low in the repeat;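 first of two repeat runs on a subset; 0% = infected and 100% = uninfected wells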
Active calls of the source: *; i = inactive; ? = inconclusive; / = not tested or not shown.

SMILES | Mtb growth | Mtb betalactam | YopH PTP inh | Arbovirus anti | RecA intein inh | others
CCCCNC(C(=O)Nc1ccc([N+](=O)[O-])cc1Br)c1ccccc1 (centres undefined) | -5.6% | 0.3 | -23.7 | -5.4 | -7.3
COc1ccc(CCN2C(=NC(=O)CCC(=O)O)SC3CS(=O)(=O)CC32)cc1 (centres undefined) | -4.1% | -2.8 | 13.4 | 8.6 | -2.0
Cc1ccc(C)c(N2CC(C(=O)OCC(=O)Nc3cc(C)on3)CC2=O)c1 (centres undefined) | / | -2.3 | / | / | 0.3
CC1=CC(=C2C(=O)NC(=S)NC2=O)C=C(C(F)(F)F)N1Cc1ccccc1 | 58.5% | 24.8 | / | -18.2 | -4.9
COc1cc2c(cc1OC)CN(C1CCCN(Cc3cc(Cl)ccc3O)C1)CC2 (centres undefined) | / | 9.2 | / | / | -10.3
CCOc1ccc2nc(N3C(=O)/C(=C/c4ccc(Cl)cc4)NC3=S)sc2c1 | ? | / | -10.9 | -13.5 | 8.0
Cc1sc2nc(SCC(=O)N(C)Cc3ccccc3)n(-c3ccccc3)c(=O)c2c1C | -7.6% | 1.0 | 13.7 | -0.6 | 1.4
Cc1ccccc1Sc1c(C#N)c(-c2ccccc2)nn1C | 17.8% | 14.4 | -37.4 | 5.2 | 2.6
COc1ccc2c(c1)c(=O)oc1cc(OCC(=O)NC3CCCCC3)ccc12 | -15.2% | 5.2 | -62.4 | -2.8 | -2.5
CCC1CCCCN1S(=O)(=O)c1ccc([N+](=O)[O-])cc1 (centres undefined) | / | -0.3 | / | / | 0.6
Cc1sc2nc(SCC(=O)N(CCO)CCO)nc(N)c2c1C | -4.8% | -5.5 | / | 1.2 | -2.3
CCN(C(=O)COC(=O)c1ccc(C)c(S(=O)(=O)N2CCCCC2)c1)C1CCS(=O)(=O)C1 (centres undefined) | / | 0.3 | / | / | -1.5
Cc1cc([N+](=O)[O-])nn1CC(=O)N/N=C/c1ccccc1O | -3.7% | 13.7 | / | / | 0.7
O=C(O)c1ccc(OCCn2ccnc2)cc1 | -15.3% | 1.2 | -38.5 | -0.2 | 0.5
Cc1c(C)c2ccc(OC(C)C(=O)N3C[C@H]4C[C@@H](C3)c3cccc(=O)n3C4)c(C)c2oc1=O (some centres undefined) | / | -7.7 | / | / | 4.9
Cc1cccc(NC(=O)c2ccccn2)c1C | -9.2% | -1.2 | -41.8 | -1.1 | -0.6
CSc1nnc(Cc2sc(-c3ccccc3)nc2-c2ccccc2)o1 | 9.6% | 63.9 | -8.4 | 0.3 | 9.8
COc1cccc(NC(=O)CNC(=O)N2CC(=O)Nc3ccccc32)c1 | / | -2.0 | / | / | -2.3
O=[N+]([O-])c1ccc(N2CCCC2)cc1NC1CC1 | 15.1% | 4.5 | -3.8 | 3.5 | 1.4
CCN(CC)S(=O)(=O)c1cc(C(=O)OCC(=O)NC2CCCc3ccccc32)ccc1C (centres undefined) | 1.0% | 5.5 | -16.6 | 1.1 | 4.5
Cc1ccc(-c2nc(CN(CC3CCC3)CC3CCCO3)c(C)o2)s1 (centres undefined) | 6.5% | 6.1 | / | 13.1 | 0.1
CCc1nc2sc(C)c(C)c2c(=O)n1CCO | -0.3% | -6.2 | 3.1 | 5.3 | 0.7 | Arbovirus anti repeat=6.5
COc1ccc(CC(C(=O)Nc2cc(C)ccc2C)/C(N)=N/O)cc1 (centres undefined) | -13.0% | -5.0 | -45.4 | 2.3 | -8.2
CCCN1CCN(CCCNC(=O)C2CCN(c3nnc(-n4cccc4)s3)CC2)CC1 | -6.4% | -8.0 | -11.4 | -0.2 | 0.2
Cc1cc(C)c2c(n1)sc1c(=O)[nH]c(SCc3ccccc3)nc12 | -5.1% | -3.7 | -27.1 | -2.2 | 0.1
O=S1(=O)C=C(SCCN2CCCC2)c2ccccc21 | -0.7% | 16.1 | -8.3 | 0.3 | 0.1
COc1ccc(CCNC(=O)Cn2c(=O)oc3cc(Cl)ccc32)cc1OC | -4.4% | 0.6 | / | / | 0.2
Cc1cc(Cl)ccc1NC(=S)NCCc1ccc(S(N)(=O)=O)cc1 | 5.2% | -2.7 | / | / | -2.1
O=C(Cc1ccc(Br)cc1)Nc1ccc(S(=O)(=O)Nc2ncccn2)cc1 | / | -0.2 | / | / | -1.6
CC1=C(C(N)=O)C(c2ccc(Br)cc2)n2nc(CCCO)nc2N1 (centres undefined) | / | -10.1 | / | / | 1.6

Gathered by group: the compounds so far with a COOH group (2)
SMILES | Mtb growth | Mtb betalactam | YopH PTP inh | Arbovirus anti | RecA intein inh | others
COc1ccc(CCN2C(=NC(=O)CCC(=O)O)SC3CS(=O)(=O)CC32)cc1 (centres undefined) | -4.1% | -2.8 | 13.4 | 8.6 | -2.0
O=C(O)c1ccc(OCCn2ccnc2)cc1 | -15.3% | 1.2 | -38.5 | -0.2 | 0.5

The results go on.
SMILES | Mtb growth | Mtb betalactam | YopH PTP inh | Arbovirus anti | RecA intein inh | others
CC(Cc1cccs1)NCc1ccccc1 (centres undefined) | 6.8% | -4.9 | / | 3.8 | -0.5
CC1C/C(=N/NC(=O)c2ccc(CSc3nc4ccccc4[nH]3)cc2)CC(C)(C)C1 (centres undefined) | 4.3% | 0.8 | -31.1 | -2.6 | -1.5
C=CCNc1nc(-c2ccc(OC)cc2OC)cs1 | 0.1% | 15.8 | -7.7 | 2.8 | 1.9
CC(C)CC(COCc1ccc(F)cc1)N1CCN(C(=O)c2cccc(C(F)(F)F)c2)CCC1=O (centres undefined) | 18.4% | -4.1 | -6.7 | -11.0 | 6.4
CN(C)c1ccc(CNCCC2CCOC(C)(C)C2)cc1 (centres undefined) | -2.5% | -1.8 | -13.2 | -2.2 | -1.0
COc1ccc(S(=O)(=O)N2CCCCCC2)cc1C(=O)OC(C)C(N)=O (centres undefined) | -6.2% | -6.8 | / | / | -0.6
CCOC(=O)C1CCN(CC(O)COCc2cccs2)CC1 (centres undefined) | 0.8% | -10.5 | / | 3.8 | -2.1
CC(NC(=O)Cc1ccccc1)c1ccc(F)cc1 (centres undefined) | 7.2% | 4.4 | -27.9 | 3.7 | 2.5
COc1ccc(CNC(=O)N2CCN(c3ccc(F)cc3)CC2)cc1 | / | -3.0 | / | / | 1.1
CC(C)(C)NC(=O)CSc1nnc(NC(=O)CCc2ccccc2)s1 | / | 9.9 | / | / | -1.6
CCc1ccc(CN(C)C(=O)c2cc(COc3ccc(-n4cncn4)cc3)on2)cc1 | / | 62.6 | / | / | 4.5
C/C(CC(=O)Nc1cccc(Cl)c1C)=N\NC(=O)Cc1csc(N)n1 | 4.8% | -2.2 | / | 2.1 | 13.9
Cc1ccc(C(c2sc3nc(C)nn3c2O)N2CCN(c3ccccc3)CC2)cc1 (centres undefined) | -17.4% | -11.8 | -1.4 | 1.9 | 1.0
O=C(N/N=C/c1ccc2ncccc2c1)c1ccco1 | 1.5% | -2.3 | / | 3.6 | -1.3
CCc1nnc(SCC(=O)NC2CCCCC2)nc1CC | -4.4% | -0.1 | 9.6 | 1.6 | 1.1
O=C(Nc1ccc(Cl)c(Cl)c1)N1CCSCC1 | -9.7% | -4.4 | -21.2 | 6.5 | 0.3
CC(C)=CCCC(C)CN1CCC(n2nccc2NC(=O)C2CCCC2)CC1 (centres undefined) | / | ? | / | / | 3.3
CC(=O)Oc1ccc(C(=O)Nc2cccc(C(=O)NC(C)(C)C)c2)cc1 | -2.1% | 3.2 | / | 11.1 | 3.6
O=C(c1ccc(Cl)cc1)[C@@H]1[C@@H]2C(=O)N(c3ccc(Cl)cc3)C(=O)[C@@H]2C2c3ccccc3C=NN21 (some centres undefined) | 8.7% | 1.1 | -13.8 | 17.1 | 0.2
CC1CC2=C(CC1/C=N/NC(N)=S)C(C)(C)CCC2 (centres undefined) | ? | 91.1 | -30.7 | -27.4 | 2.0
O=C(COc1ccccc1Cl)NC(=S)N1CCc2ccccc21 | ? | 71.7 | -35.3 | 3.9 | -3.2
Cc1ccccc1N1OC2C(=O)N(c3ccc(F)cc3)C(=O)C2C1c1ccccn1 (centres undefined) | 12.6% | 2.2 | -34.8 | 17.9 | -2.4
CCN(CC)CCCn1c2c(c(SCC(=O)Nc3nccs3)nc1=O)CCC2 | / | -14.1 | / | / | -0.2
O=C(O)c1cc(-c2ccccc2)n(-c2ccc(Cl)cc2)n1 | -6.4% | -6.2 | / | 0.6 | -0.3
Cc1ccc(C(=O)OCc2nc(N)nc(Nc3ccccc3C)n2)cc1 | 8.9% | 14.8 | -9.4 | -0.1 | 3.9
COC(=O)c1ccccc1NC(=O)c1sc(=S)n(C)c1N | -11.9% | 43.1 | -28.0 | -0.9 | /
Cn1c(=O)c2c(nc(CN3CCN(C(=O)c4ccco4)CC3)n2CCc2ccccc2)n(C)c1=O | -0.4% | 9.5 | -22.1 | 5.0 | 0.7
CCC(=O)c1ccc(/C=C/c2nc3ccccc3n2C)o1 | 0.7% | -1.0 | / | -2.7 | i
CCOC(=O)N1CCN(C(=O)c2oc3ccc(S(=O)(=O)N(CC)CC)cc3c2C)CC1 | / | -1.8 | / | / | -1.9
CN(C(=O)c1cccc(COc2ccc(Cl)cc2Cl)c1)c1ccccc1 | 6.8% | 0.4 | -22.8 | -21.1 | 35.5*
N#Cc1cccnc1N1CCC(C(N)=O)CC1 | -9.0% | 2.8 | / | / | 1.4
OC1CCCN(CC(O)COC(c2ccccc2)c2ccccc2)C1 (centres undefined) | -0.1% | -7.3 | / | / | -13.0
COC(=O)CN(c1nc(C)c(Br)c(OC)n1)S(=O)(=O)c1ccc(C)cc1 | 2.7% | -6.5 | -27.1 | -0.1 | 16.0
Cc1cccc(N2C(=O)NC(=O)/C(=C\c3cc(C)n(-c4sc5c(c4C#N)CCCC5)c3C)C2=O)c1C | 4.7% | -1.6 | -4.4 | 4.4 | 0.8
O=C(NNC(=O)c1cc2cc(OC(F)(F)F)ccc2[nH]1)c1cccc(C(F)(F)F)c1 | 0.5% | -2.7 | / | / | 2.1
COc1ccc2[nH]c(C(=O)Nc3cccc(C)n3)cc2c1 | -9.5% | -5.7 | / | / | 3.1
COC(=O)c1ccc2nc(NC(=O)C(C)(C)C)sc2c1 | 52.5% | 70.4 | / | 5.6 | -0.4
COc1ccc(NC(=O)c2cc(S(=O)(=O)N3CCS(=O)(=O)CC3)ccc2Cl)cc1 | 3.0% | -0.7 | -62.0 | -4.4 | -1.4
O=C(Cn1nc(C(F)F)cc1C1CC1)N1CCCC1 | / | -8.7 | / | / | 0.8
Cc1cccc(NC(=O)CCCc2ccccc2)c1 | / | -2.8 | / | / | 4.1
Cc1ccc(Nc2nc(CSc3nnc(-c4ccncc4)n3C)cs2)cc1 | 6.4% | -7.5 | -28.0 | 6.4 | 0.6
Cc1cc2ccccn2c1C(=O)c1ccncc1 | -5.3% | 7.3 | -26.8 | 2.4 | 8.0
O=C1OC(Nc2cc(Br)cc3cccnc23)c2ccccc21 (centres undefined) | -2.4% | 3.1 | 3.9 | -42.9 | -7.5
Cn1c(CSCc2ccc(F)cc2)n[nH]c1=S | / | -8.4 | / | / | 1.7
COc1ccc(CNS(=O)(=O)c2ccc(S(=O)(=O)N3CCCCC3)cc2)cc1 | -4.8% | 6.7 | / | / | -0.1
Cc1cc2c(cc1S(=O)(=O)CCC(=O)NCCc1ccccc1)OCC(=O)N2 | / | 1.2 | / | / | -1.2
CN(C)CCCNc1ccc(-c2n[nH]c(=O)c3ccccc23)cc1[N+](=O)[O-] | / | 5.7 | / | / | -3.5
COc1ccc(/C=N/NC(=O)Cn2cnc3ccccc3c2=O)cc1 | 6.0% | ? | -17.0 | 0.0 | 0.0
O=C(NCc1ccccn1)Nc1ccc2c(c1)OCO2 | -10.1% | -4.9 | -8.8 | -22.9 | 0.8
CC(=O)Nc1ccc2c(c1)c1ccccc1n2C(C)=O | 20.1% | 3.0 | -33.0 | -4.2 | -1.0
CCc1cccc(CC)c1NC(=O)COC(=O)c1cccc(S(=O)(=O)N2CCc3ccccc3C2)c1 | -2.0% | 2.3 | -29.8 | -6.2 | 3.5
O=C(NCc1cccs1)C1CCC(=O)N(Cc2cccc(C(F)(F)F)c2)C1 (centres undefined) | / | -9.3 | / | / | -1.1
O=C(CSc1nnc(COc2cccc3ccccc23)o1)N1c2ccccc2CCc2ccccc21 | -3.0% | 0.1 | 5.8 | -0.5 | 13.1
CCCS(=O)(=O)N1CCN(Cc2ccccc2[N+](=O)[O-])CC1 | -0.8% | -4.1 | / | 22.3 | -1.7
Cc1ccc(-n2c(SCC(=O)NCc3ccco3)nc3c(sc4ccccc43)c2=O)cc1 | 7.9% | 8.2 | -10.0 | 13.1 | 2.5

A section from the list above, as a working copy:
SMILES | Mtb growth | Mtb betalactam | YopH PTP inh | Arbovirus anti | RecA intein inh | others
CCCS(=O)(=O)N1CCN(Cc2ccccc2[N+](=O)[O-])CC1 | -0.8% | -4.1 | / | 22.3 | -1.7
Cc1ccc(-n2c(SCC(=O)NCc3ccco3)nc3c(sc4ccccc43)c2=O)cc1 | 7.9% | 8.2 | -10.0 | 13.1 | 2.5

Screening results from PubChem BioAssay.

Not all compounds are listed, so the mix of outcomes need not match the whole.
